Mtb growth: M. tuberculosis H37Rv growth inhibitors, H37Rv strain (AID 1626); actives 0.95% (n = 220,000); M. tuberculosis H37Rv growth inhibition; higher % means a stronger effect; one-dose inhibition, % at 10 µM; IC50 in µM for titrated hits;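 active means confirmed in a dose series; inconclusive means inhibition above 80% but not taken into the dose series; inactive means below 80% or under 30% at every dose of the series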;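 further: bacteria incubated seven days before Alamar blue readout; 0% = bacteria only wells and 100% = bacteria with antibiotic wells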
YopH inh: inhibitors of Yersinia enterocolitica YopH tyrosine phosphatase | fluorescence Ex485/Em525 | inhibition, %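 (about 10 µM by stock and volumes)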 | actives 0.16% (n = 140,000);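 active means inhibition of 50% or more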;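 further: controls were vehicle for no effect and minimum signal wells for full effect; inactives centre near -20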
RecA splice inh: blocks M. tuberculosis RecA intein splicing; cell-free RecA intein splicing, fluorescence; inhibition, %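 (about 9 µM by stock and volumes)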; actives 0.75% (n = 290,000); in the data active means inhibition above about 30%; inconclusive means no clear call, values can overlap the other calls;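 further: 0% = vehicle wells and 100% = reference inhibitor control wells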
Target sequence (P9WHJ3 whole entry, looked up, canonical isoform): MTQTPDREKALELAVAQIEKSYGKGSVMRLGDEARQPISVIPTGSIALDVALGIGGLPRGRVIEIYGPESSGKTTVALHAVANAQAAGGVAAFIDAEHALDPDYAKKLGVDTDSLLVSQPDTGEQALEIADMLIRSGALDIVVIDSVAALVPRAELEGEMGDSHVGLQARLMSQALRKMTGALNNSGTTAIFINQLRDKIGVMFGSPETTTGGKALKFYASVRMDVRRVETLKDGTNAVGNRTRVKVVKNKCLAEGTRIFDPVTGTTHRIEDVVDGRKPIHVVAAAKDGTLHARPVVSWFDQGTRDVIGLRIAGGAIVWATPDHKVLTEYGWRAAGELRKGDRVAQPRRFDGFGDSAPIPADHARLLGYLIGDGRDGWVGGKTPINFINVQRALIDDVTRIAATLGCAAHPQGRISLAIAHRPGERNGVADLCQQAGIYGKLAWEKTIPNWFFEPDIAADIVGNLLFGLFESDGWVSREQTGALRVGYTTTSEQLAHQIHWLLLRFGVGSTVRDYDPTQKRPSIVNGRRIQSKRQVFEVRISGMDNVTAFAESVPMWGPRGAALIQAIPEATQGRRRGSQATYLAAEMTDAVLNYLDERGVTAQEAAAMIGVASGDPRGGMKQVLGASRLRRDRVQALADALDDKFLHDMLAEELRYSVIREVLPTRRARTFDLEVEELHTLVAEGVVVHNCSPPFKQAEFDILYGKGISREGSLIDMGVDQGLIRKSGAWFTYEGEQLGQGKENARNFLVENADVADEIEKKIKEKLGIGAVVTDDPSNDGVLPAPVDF
Mtb bLac sens: beta-lactam sensitization of Mtb H37Rv. M. tuberculosis H37Rv growth with meropenem, percent inhibition; hits of this screen are not shown here. inhibition, % at 25 µM. actives 0.27% (n = 330,000);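 active means about 74% or more and at least 40 points above the plate without the antibiotic, then above 30% in a dose series; inconclusive means first-round hits that could not be retested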;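 further: growth measured after seven days incubation then overnight dye step; 0% = bacteria only wells and 100% = bacteria with antibiotic; twin plates without the antibiotic show which effects depend on it; some results filed as inactive read as strong as hits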
Arbovirus anti: arbovirus infection inhibition; arbovirus infection cell-based antiviral screen; inhibition, % at 10 µM; actives 0.37% (n = 200,000); AID 1251;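 active means inhibition from about 30%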;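 further: bluetongue infection of BSR cells; cell survival read as ATP light after 72 h; 0% = infected wells without compound and 100% = uninfected wells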
Arbovirus anti repeat: also measured in Arbovirus anti; calls as there; inhibition, %; measured here: 10K subset replicate screen; many hits read low in the repeat;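 first of two repeat runs on a subset; 0% = infected and 100% = uninfected wells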
* hit, by the source's call; ? = inconclusive; . = no result given.

SMILES | Mtb growth | YopH inh | RecA splice inh | Mtb bLac sens | Arbovirus anti | others
COC(CNC(=O)c1ccc(CS(=O)(=O)c2ccc(Br)cc2)o1)OC | . | . | -1.4 | -1 | .
COc1ccc2c(c1)O[C@H](c1ccc3c(c1)OCO3)[C@@H](OC(=O)Nc1cc(OC)c(OC)c(OC)c1)C2=O | . | -8 | 1.3 | -6 | -16
O=c1c2ccccc2[nH]c(=S)n1C1CCCCC1 | 2% | -13 | 0.0 | 24 | 0
Cc1cnc(C)c(N(C)NC(=S)Nc2ccccc2)n1 | -5% | -34 | 0.6 | 5 | 5
O=C(/C=C/c1cccc(Br)c1)NCc1ccncc1 | -7% | . | 0.1 | -11 | 2
COc1ccccc1CNC(=O)c1ccccc1C(=O)NC(CC(C)C)C(=O)NCc1ccccc1OC (centres undefined) | . | . | -1.5 | 6 | .
C=CCSc1nc(-c2ccccc2)c2cc(Cl)ccc2n1 | 3% | -35 | 1.9 | 7 | 1
COc1cc2ccccc2cc1C(=O)NNC(=O)c1ccccc1O | . | . | 29 | -9 | .
CCOc1cccc(C(=O)Nc2ccc3[nH]ncc3c2)c1 | . | . | 3.6 | 2 | .
OCCCNc1nc(-c2ccccc2)c2cc(Cl)ccc2n1 | . | . | -275 | -5 | .
O=c1cc(CN2CCOCC2)c2cc(Cl)c(O)cc2o1 | . | . | -203 | -6 | .
CCN1CCN(Cc2nnnn2C(C)(C)C)CC1 | 7% | -21 | -12 | -2 | 3
CC(NC(=O)CCN1C(=O)c2ccccc2C1=O)c1ccccc1 (centres undefined) | . | . | 0.7 | 1 | .
O=C(CN1CCN(Cc2ccccc2)C1=O)NCc1cccs1 | -9% | -58 | 1.4 | -4 | 10
O=C(CSc1nc(=O)n(CCCN2CCOCC2)c2c1CCC2)Nc1cccc(F)c1 | . | . | 0.1 | -7 | .
CCC(=O)NCCc1nc2ccccc2n1CC | 6% | -15 | 0.4 | -6 | -2
COc1cccc(Cn2cnc3c(NS(=O)(=O)c4cccc(Cl)c4Cl)c(C)c(C)cc32)c1 | -10% | -9 | 3.4 | 5 | -22
Cc1cc(C)cc(N(C(=O)c2csnn2)C(C(=O)NC2CCCCC2)c2cccnc2)c1 (centres undefined) | . | . | 0.2 | 1 | .
CC(=O)c1cn(CC(=O)NCC2CCCO2)c2ccccc12 (centres undefined) | 1% | -22 | 1.3 | -5 | 1
CCOc1ccc(N2CC(C(=O)Nc3cccnc3)CC2=O)cc1 (centres undefined) | . | . | 0.8 | 4 | .
COc1cc(/C=N/NC(=S)N/N=C/c2cc(OC)c(OC)c(OC)c2)cc(OC)c1OC | 8% | -10 | 15 | 9 | -10
CCOc1ccc(C(=O)N2CCN(c3cccc(Cl)c3)CC2)cc1 | -2% | . | -0.6 | -3 | 3
CC(C(=O)Nc1ccccc1-c1ccccc1)N1CCOCC1 (centres undefined) | 5% | -178 | -2.6 | 0 | -5
NS(=O)(=O)c1ccc(NC(=O)COc2ncnc3sccc23)cc1 | -4% | . | 0.1 | 0 | .
Cn1c(=O)c2c(nc(NCC(O)CO)n2CCc2ccccc2)n(C)c1=O (centres undefined) | -4% | -47 | -0.1 | 6 | 0
COc1ccc(CCNC(=O)C2(C)CCC(=O)N2CCC(C)C)cc1OC (centres undefined) | 1% | -25 | -1.1 | -11 | -1
NC(=O)c1ccc(NC(=O)CN2CCN(C(=O)c3ccco3)CC2)cc1 | . | . | 4.0 | -3 | .
CSc1nnc(CSc2cc(C)nc(N(C)C)n2)o1 | -1% | -25 | 0.5 | 7 | 1
CCCC(=O)Nc1cccc(NC(=S)NC(=O)C(C)Oc2ccc(Cl)cc2Cl)c1 (centres undefined) | -1% | -14 | -0.3 | 1 | 14
Cc1cccc(NC(=S)NCCN(C2CCCCC2)C2CCCC2)c1 | -3% | . | 1.5 | -10 | -11
COc1ccc(CCNC(=O)CSc2n[nH]c(C)c2[N+](=O)[O-])cc1OC | -2% | . | -0.2 | -4 | 4
CC(=O)N1CCN(C(=O)c2ccc(NS(=O)(=O)c3cc(C)ccc3C)cc2)CC1 | . | . | -0.4 | 2 | .
N#Cc1cccc(-n2nnnc2-c2ccc3c(c2)OCO3)c1 | 2% | -1 | -3.4 | -8 | 5
Cc1cc(NC(=O)CSc2nncn2-c2ccccc2)no1 | 1% | . | -1.3 | 1 | 5
Cc1sc(NC(=O)c2cccc(N3C(=O)CCC3=O)c2)nc1-c1ccccc1 | . | . | -2.6 | -3 | .
O=C1N=C(c2ccccc2)S/C1=C\c1cccs1 | -4% | 0 | -1.7 | 5 | -1
CCn1c(=NC(=O)c2ccc(S(=O)(=O)N3CCOCC3)cc2)sc2cccc(OC)c21 | 13% | -35 | -7.8 | 48 | 8
CN(C)C(CNC(=O)c1cc(Br)ccc1Cl)c1ccco1 (centres undefined) | . | . | 0.9 | -8 | .
c1ccc(-c2noc(CN3CCN(c4cnccn4)CC3)n2)cc1 | 2% | . | 0.5 | -2 | 1
CC(=O)Oc1ccc(CC(C(=O)O)N2C(=O)c3ccccc3C2=O)cc1 (centres undefined) | . | . | -0.2 | 4 | .
COC(=O)c1ccc(CSc2nncn2N)cc1 | -5% | . | 0.5 | 0 | 5
COc1ccc2c(CC(=O)NCc3cccs3)coc2c1 | 14% | . | 1.6 | 7 | -4
O=C(CNC(=O)c1ccc(Br)cc1)N/N=C/c1ccc[nH]1 | -2% | -12 | -1.3 | 1 | 4
COc1ccc(C(=O)NCCc2cn3ccccc3n2)cc1 | -6% | . | -4.2 | -7 | .
CCc1ccc(CN(C)CCc2ccccn2)cc1 | 3% | -27 | 0.8 | ? | 3
C/C(CCc1ccc2c(c1)OCO2)=N\N=C(/N)SC1CC(=O)N(c2ccc(Cl)cc2)C1=O (centres undefined) | 11% | -30 | -0.3 | 9 | -14
CC(Oc1ccccc1)C(=O)N=Nc1c(O)[nH]c2ccc([N+](=O)[O-])cc12 (centres undefined) | 4% | . | -2.7 | -1 | -6
O=C1c2ccccc2C(=O)N1CCc1ccccc1 | . | . | 2.6 | -10 | .
O=Cc1cn(CCOc2ccccc2F)c2ccccc12 | . | . | 1.5 | -3 | .
Cc1ccc(O)c(C2=Nc3ccccc3N=C(c3ccc([N+](=O)[O-])cc3)C2)c1 | 6% | -26 | 0.9 | 2 | -6
CCOc1ccc(C(CCc2ccccc2)NC(=O)c2ccccc2OC)cc1OCC (centres undefined) | 8% | -15 | -3.4 | . | -1
NC(=O)CSc1nc2ccccc2n1Cc1ccccc1 | 5% | -18 | 2.6 | -8 | -11
COc1ccc(OC)c(N2C(=O)CC(=O)NC2=O)c1 | . | . | 1.1 | 2 | .
Brc1ccc2[nH]ncc2c1 | -4% | -26 | -2.0 | 3 | -1
Cc1cccc(-c2nsc(SCC(=O)c3ccc(Cl)cc3)n2)c1 | 94% | -6 | -2.1 | 78 | 13
CC(NC(=O)Cn1nnc(-c2ccncc2)n1)c1ccccc1 (centres undefined) | -15% | -26 | -0.6 | . | 4
CCC(CC)c1nc2cc(OC)c(OC)cc2c(=O)o1 | -3% | -38 | 2.4 | 6 | 0
N#CCCn1cc(C(=O)O)c(-c2cccs2)n1 | 3% | . | 0.9 | 2 | -3
COc1ccc(-c2c[n+]3c(n2-c2ccccc2)SCC3)cc1 | -2% | . | 0.8 | 3 | .
O=C(Nc1cnccn1)c1ccc(Cl)cc1 | . | . | -2.0 | -1 | .
Next part.
SMILES | Mtb growth | YopH inh | RecA splice inh | Mtb bLac sens | Arbovirus anti | others
Oc1c(Br)cc(/C=N/NC(=S)NCC2CCCO2)cc1Br (centres undefined) | -1% | . | -0.5 | -7 | .
COc1ccc(C(CNC(=O)c2ccccc2C)N2CCCC2)cc1 (centres undefined) | -7% | -16 | -1.9 | -14 | 3
COc1ccc(OC)c(S(=O)(=O)N/N=C\c2cn(CC(N)=O)c3ccccc23)c1 | . | . | -1.5 | 3 | .
COC(=O)/C=C1\S/C(=N/NC(=O)c2ccccc2)NC1=O | -8% | -11 | 11 | 2 | 0
O=C(NCCN1CCOCC1)c1ccc(/C=C2\Sc3ccccc3N(Cc3ccc(F)cc3)C2=O)cc1 | . | . | -16 | 50 | .
O=C(O)c1ccc(/C=N/NC(=O)c2cc(-c3cccs3)nc3ccccc23)cc1 | -1% | -32 | -4.1 | 0 | -6
NC(=O)CCn1c(C(=O)c2cc(Cl)c(N)c(Cl)c2)c2ccccc2[n+]1[O-] | . | . | -1.0 | -3 | .
CCOC(=O)c1c(-c2ccc(C)o2)csc1NC(=S)NC(=O)N(C)C | ? | -15 | 2.7 | . | -23
Cc1ccc(N=C(N)N=C(N)N)cc1 | 4% | . | -0.7 | 22 | .
CC(=O)Nc1ccc(S(=O)(=O)NCc2nc(-c3cccc(C)c3)no2)cc1 | . | . | -2.8 | 5 | .
CCNc1nc(CN2CCOCC2)nc2sc3c(c12)CCC3 | -6% | 0 | 1.2 | 1 | 5
CCOC(=O)Cn1c(=O)oc2cc(S(=O)(=O)NCc3cccs3)ccc21 | 3% | -50 | -1.1 | 0 | 1 | Arbovirus anti repeat=-4
CC(C)CCNC(=O)c1cn(CC(C)C)c(=O)c2c1c1ccccc1n2C | . | . | -3.4 | -7 | .
CCCCNC(=O)C1CCC(CNc2nc(=S)[nH]c3ccccc23)CC1 (centres undefined) | -4% | . | . | -14 | -13
CCCOc1ccc(N2C(=O)CC(NCc3ccncc3)C2=O)cc1 (centres undefined) | 10% | -10 | 1.2 | -6 | 5
COc1ccc(/C(N)=N/OC(=O)c2ccco2)cc1OC | -3% | . | -2.3 | 4 | -2
COc1ccc(C2/C=C\CN(C(=O)Nc3ccc(C(F)(F)F)cc3)CC(=O)N2Cc2ccc(F)cc2)cc1 (centres undefined) | 5.7µM* | . | 4.6 | 99 | .
COc1ccc(NC(=O)CSc2nccn2-c2ccccc2)cc1 | -5% | -16 | 2.0 | 3 | 1
COC(=O)c1c(C)[nH]c(C(=O)OC(C)C(=O)N(C)C2CCCCC2)c1C (centres undefined) | . | . | -8.3 | -9 | .
COc1ccc(NC(=S)N2CCC(NC(=O)c3cccc(C)c3)CC2)cc1 | . | . | -0.7 | 0 | .
COc1cc(NC(=O)c2cc(S(=O)(=O)N3CCCCC3)c[nH]2)cc(OC)c1 | . | . | -2.1 | -5 | .
O=C(NCc1ccccn1)c1ccccc1OCc1ccc(F)cc1 | . | . | -1.5 | -4 | .
Cn1ccnc1SCCNC(=O)CCc1nnc(CCCCc2ccccc2)o1 | 5% | . | -1.6 | -2 | 6
COc1ccc(-c2nc(CN3CCCCC3c3nccn3C)c(C)o2)c(C)c1C (centres undefined) | 18µM* | . | 2.4 | 84 | -14
Cc1sc2ncnc(NCC(O)c3ccccc3)c2c1C (centres undefined) | . | . | 2.3 | -5 | .
CC(=O)CCc1ccc(OCCCOc2cccc3cccnc23)cc1 | . | . | 0.9 | 5 | .
O=C(NCCCn1ccnc1)c1ccc(S(=O)(=O)N2CCOCC2)cc1 | -4% | . | 1.4 | 13 | 2
Cc1c(CNCCc2ccccc2Cl)c(C(=O)O)c(C)n1-c1ccccc1 | . | . | 3.6 | -2 | .
CC(C)(C)c1ccc(C(=O)C2CCCN(C3CCC3)C2)cc1 (centres undefined) | . | . | -1.0 | -4 | 8

Entries above that have an aryl thioether with sulfur outside any ring:
SMILES | Mtb growth | YopH inh | RecA splice inh | Mtb bLac sens | Arbovirus anti | others
C=CCSc1nc(-c2ccccc2)c2cc(Cl)ccc2n1 | 3% | -35 | 1.9 | 7 | 1
O=C(CSc1nc(=O)n(CCCN2CCOCC2)c2c1CCC2)Nc1cccc(F)c1 | . | . | 0.1 | -7 | .
CSc1nnc(CSc2cc(C)nc(N(C)C)n2)o1 | -1% | -25 | 0.5 | 7 | 1
COc1ccc(CCNC(=O)CSc2n[nH]c(C)c2[N+](=O)[O-])cc1OC | -2% | . | -0.2 | -4 | 4
Cc1cc(NC(=O)CSc2nncn2-c2ccccc2)no1 | 1% | . | -1.3 | 1 | 5
COC(=O)c1ccc(CSc2nncn2N)cc1 | -5% | . | 0.5 | 0 | 5
NC(=O)CSc1nc2ccccc2n1Cc1ccccc1 | 5% | -18 | 2.6 | -8 | -11
Cc1cccc(-c2nsc(SCC(=O)c3ccc(Cl)cc3)n2)c1 | 94% | -6 | -2.1 | 78 | 13
COc1ccc(NC(=O)CSc2nccn2-c2ccccc2)cc1 | -5% | -16 | 2.0 | 3 | 1
Cn1ccnc1SCCNC(=O)CCc1nnc(CCCCc2ccccc2)o1 | 5% | . | -1.6 | -2 | 6

Three structures already listed, sorted by length of the SMILES, largest number first.
SMILES | Mtb growth | YopH inh | RecA splice inh | Mtb bLac sens | Arbovirus anti | others
Cn1ccnc1SCCNC(=O)CCc1nnc(CCCCc2ccccc2)o1 | 5% | . | -1.6 | -2 | 6
Cc1cnc(C)c(N(C)NC(=S)Nc2ccccc2)n1 | -5% | -34 | 0.6 | 5 | 5
O=C1N=C(c2ccccc2)S/C1=C\c1cccs1 | -4% | 0 | -1.7 | 5 | -1

Bioassay records: PubChem, several laboratories

Not all compounds are listed, so the mix of outcomes need not match the whole.
